StopGo RLuc – FMDV 2A StopGo reporter, Renilla signal; HEK cells with a luciferase reporter of 2A StopGo recoding; Potency, µM (series often up to 57.5 µM), inactives show at the highest dose signal change, negative = less light; actives 0.32% (n = 120,000); AID 1745857; active means well fitted falling curve with a large enough effect; inconclusive means small, poorly fitted or top-dose-only effect; inactive means no such curve, though single readings can be large or run the other way; note: nearly all actives have a fitted effect of over 55% in size; overnight with compound
2A firefly – FMDV 2A StopGo reporter, firefly signal. Potency, µM (titrated, usually from 57.5 µM), without a hit: at the top dose signal change, negative = less light. AID 1745856. actives 0.23% (n = 120,000). HEK cells with a luciferase reporter of 2A StopGo recoding; active = well fitted falling curve with a large enough effect; inconclusive = small, poorly fitted or top-dose-only effect; inactive = no such curve, though single readings can be large or run the other way; note: nearly all actives have a fitted effect of over 60% in size; overnight with compound
The depositor's hits bear a star; u = inconclusive; & = joins results of further samples; [ ] = remark or other dose. % is set by controls: 0 for no effect and ±100 for the full control effect; potency is the fitted concentration of half-maximal effect.

SMILES | StopGo RLuc | 2A firefly
O=C(Nc1cccc(C(F)(F)F)c1)c1cnn(-c2cccc(F)c2)c1C1CCNCC1 | 11% | -11%
COc1cc(OC)c(N(C)C(=O)CCNC(=O)Cn2cnc3ccccc3c2=O)cc1Cl | -15% | 4%
O=C(COC(=O)C1CC=CCC1C(=O)OCC(=O)c1ccc(Cl)cc1)c1ccc(Cl)cc1 (centres undefined) | 8% | u
Clc1ccc(N/N=C/c2cccc(Cl)c2Cl)cc1Cl | 9% | 0%
Cc1cc(C)c(C)c(S(=O)(=O)NCC2CN(Cc3ccccc3)CCO2)c1C (centres undefined) | 182%[activator] | -14%
C=CCN1C(=O)c2ccccc2N2C(=O)CCC12C(=O)OCc1cc(=O)oc2cc(C)c(C)cc12 (centres undefined) | -6% | 6%
CCCN1CN=C(NS(=O)(=O)c2ccc(NC(C)=O)cc2)NC1 | -6% | -8%
COc1ccc(N2CCN(C(=O)CCC(=O)NNc3nc4ccccc4c4nc(C)nn34)CC2)cc1 | 4% | -12%
Nc1nccnc1C(=O)Nc1ccc(C(=O)NCC(F)(F)F)cc1 | -2% | 2%
COc1cc2oc(=O)c(CC(=O)NCCc3ccccc3F)c(C)c2cc1OC | -4% | -2%
Cc1ccc(/C=C/S(=O)(=O)NCC(=O)OCC(=O)c2c(C)[nH]c3ccccc23)cc1 | -12% | -14%
COc1cc(C2NC(=O)c3c(sc4c3CCN(C)C4)N2)ccc1OC(=O)c1ccccc1 (centres undefined) | -10% | 102%[activator]
CC1(C)CC(=O)C2=C(C1)OC1=C(C(=O)CC(C)(C)C1)C2c1ccc(C(=O)O)cc1 | -1% | -1%
CN(CC(=O)NC1CCCCNC1=O)Cc1ccccc1Cl (centres undefined) | -5% | 2%
CC(=O)O[C@]1(C(C)=O)CC[C@H]2[C@@H]3C=C(C)C4=CC(=O)CC[C@]4(C)[C@H]3CC[C@@]21C | 2% | -9%
O=C(OCC(O)CO)c1ccccc1Nc1ccnc2c(C(F)(F)F)cccc12 (centres undefined) | -15% | -8%
Cc1ccc(S(=O)(=O)NCC2CCC(C(=O)NCC(=O)N(C)Cc3ccccc3)CC2)cc1 (centres undefined) | 2% | -10%
COc1ccc(-c2noc(C3CC(=O)N(c4ccc5c(c4)OCCO5)C3)n2)c(OC)c1 (centres undefined) | -15% | -13%
Cc1cccc(N(C)C(=O)Cn2c(=O)oc3cc(S(=O)(=O)N4CCCCC4)ccc32)c1 | 1% | -3%
O=C1CC(c2ccccc2O)Cc2nc(N3CCN(c4cccc(Cl)c4)CC3)ncc21 (centres undefined) | u | u
Cn1c(Oc2ccccc2)nc2c1c(=O)n(Cc1ccc(Cl)cc1Cl)c(=O)n2C | 2% | -11%
CCC1=Nc2cc(C(=O)NC3CCC(C)CC3)ccc2Sc2ccc(C)cc21 (centres undefined) | 37%[activator] | 12%
CCOC(=O)c1cnc(Nc2ccc(C)c(C)c2)c2ccccc12 | 10% | 46%[activator]
O=C1OC(CCN2CCCCC2)OC1(c1ccccc1)c1ccccc1 (centres undefined) | -2% | -2%[11.5 µM]
O=[N+]([O-])c1cc(-c2nc(-c3ccco3)no2)ccc1NCc1ccccc1 | 9% | 62%[activator]

Overlap with the part before: 2 entries, followed by the next part.
SMILES | StopGo RLuc | 2A firefly
O=C1OC(CCN2CCCCC2)OC1(c1ccccc1)c1ccccc1 (centres undefined) | -2% | -2%[11.5 µM]
O=[N+]([O-])c1cc(-c2nc(-c3ccco3)no2)ccc1NCc1ccccc1 | 9% | 62%[activator]
O=C(CCS(=O)(=O)c1ccc(Br)s1)Nc1cc(C(F)(F)F)cc(C(F)(F)F)c1 | -24% | -4%
CC(=O)N1c2ccc(S(=O)(=O)N3CCCCCC3)cc2CC1C(=O)NC(C)C (centres undefined) | -12% | -24%
CCCN(Cc1cccs1)C(=O)Nc1cc(OC)ccc1OC | -5%&6% | 4%&3%
CCOc1cc(C(=O)NCCc2sc(-c3ccc(F)cc3)nc2C)cc(OCC)c1OCC | -4% | 14%
CN(CC(=O)C(C#N)c1ccccc1)C1CCCCC1 (centres undefined) | 14% | 3%
O=C(NOCC1CC1)c1ccc(F)c(F)c1Nc1ccc(I)cc1Cl | -24% | 2%[11.5 µM]
COC(=O)C1=C(C)NC(COC(N)=O)=C(C(=O)OC(C)C)C1c1cccc(Cl)c1Cl (centres undefined) | -2% | -6%[11.5 µM]
Cc1nc(NC(C)C)sc1C(=O)NCCc1ccccc1 | -8% | 158%[activator]
CCCNC(=O)COC(=O)c1csc(NCc2ccccc2)n1 | -6% | 10%
CC(C)CNC(=O)C(C)Sc1nc(-c2ccco2)nc2ccccc12 (centres undefined) | 14% | 34%[activator]
CCCCn1c(-c2ccc(OCC#N)c(OC)c2)nc2c1c(=O)[nH]c(=O)n2CC(C)C | 28% | 32%[activator]
Cc1coc2cc3oc(=O)c(CCC(=O)NCc4ccc(Cl)cc4)c(C)c3cc12 | -11% | 0%
CC(C)NC(=O)c1cccc(I)c1 | -15% | 27%
CC(=O)C[C@](N)(c1ccc(C)cc1)C(F)(F)F | -11% | 10%
CC(=O)c1cccc(NC(=O)c2noc3c2CSc2ccccc2-3)c1 | -4% | 80%[activator]
CCOC(=O)Cc1csc(SCC(=O)NC2CCCCC2)n1 | -5% | -9%
O=C(c1cccs1)N(Cc1cccnc1)c1nc2ccc(F)cc2s1 | 4% | 6%
COc1ccc(OC)c(-c2noc(N3CCN(c4cccc(C)c4C)CC3)n2)c1 | -15% | -6%
COc1ccc(OCC(=O)Nc2nnc(S(=O)(=O)N3CCc4ccccc43)s2)cc1 | -10% | -1%
CCOC(=O)N1CCN(C(=O)c2cc(N3C(=O)CCS3(=O)=O)ccc2Cl)CC1 | 4% | 7%
Cc1csc(CNC(=O)c2cccc(C(N)=O)c2)n1 | -15% | 16%
COc1ccc(-c2nc(CSCC(=O)N3CCN(c4cccc(C)c4C)CC3)c(C)o2)cc1OC | u | u
Cc1ccsc1C(=O)OCC(=O)NC(=O)NC(C)(C)C | 6% | 69%[activator]
Cc1cccc(CNC(=O)c2ccc(-c3nc(CS(=O)(=O)c4ccccc4)c(C)o3)cc2)c1 | 26% | -2%
O=C(Nc1oc2ccccc2c(=O)c1-c1ccc(F)cc1)c1cccc([N+](=O)[O-])c1 | 26% | 20%

Arranged by molar mass (rising): 3 of the compounds above.
SMILES | StopGo RLuc | 2A firefly
CC(C)NC(=O)c1cccc(I)c1 | -15% | 27%
Cc1ccsc1C(=O)OCC(=O)NC(=O)NC(C)(C)C | 6% | 69%[activator]
CCOc1cc(C(=O)NCCc2sc(-c3ccc(F)cc3)nc2C)cc(OCC)c1OCC | -4% | 14%

Reprinted at random: six records from the list.
SMILES | StopGo RLuc | 2A firefly
O=C(Nc1oc2ccccc2c(=O)c1-c1ccc(F)cc1)c1cccc([N+](=O)[O-])c1 | 26% | 20%
O=C(CCS(=O)(=O)c1ccc(Br)s1)Nc1cc(C(F)(F)F)cc(C(F)(F)F)c1 | -24% | -4%
CC(=O)C[C@](N)(c1ccc(C)cc1)C(F)(F)F | -11% | 10%
CN(CC(=O)C(C#N)c1ccccc1)C1CCCCC1 (centres undefined) | 14% | 3%
Cc1cccc(CNC(=O)c2ccc(-c3nc(CS(=O)(=O)c4ccccc4)c(C)o3)cc2)c1 | 26% | -2%
CCOC(=O)N1CCN(C(=O)c2cc(N3C(=O)CCS3(=O)=O)ccc2Cl)CC1 | 4% | 7%

Following part:
SMILES | StopGo RLuc | 2A firefly
O=C(Cn1c(-c2cccs2)cc2cc(Cl)ccc21)NCc1ccccc1 | 11% | -8%
CC(=O)N1c2ccccc2CC1C(=O)N1CCN(c2ccccc2)CC1 (centres undefined) | -17% | -1%
CCC(=O)Nc1ccc2c(c1)nc1n2CCSC1 | -3% | 65%[activator]
COc1ccc(N2CCN(C(=O)CSc3n[nH]c(-c4ccccc4Cl)n3)CC2)cc1 | 89%[activator] | 0%
CCC(Sc1nnc2c(n1)[nH]c1ccccc12)C(=O)Nc1ccccc1OC (centres undefined) | 16% | 176%[activator]
Cc1ccc(NC(=O)Nc2nc3c(s2)CCCCCC3)cc1C | 1% | 84%[activator]
CCOC(=O)C(C)Sc1nc2c(c(=O)[nH]c(=O)n2C)n1Cc1ccc(Cl)cc1 (centres undefined) | -13% | -11%
O=C(NCc1ccco1)c1ccc2c(c1)N(Cc1ccccc1)C(=O)c1ccccc1S2(=O)=O | -2% | 35%[activator]
CSc1cccc(NC(=O)c2ccc3c(c2)CCC3)c1 | 8% | 107%[activator]
COc1ccc(-n2c(SCC(=O)NCc3ccco3)nc3c([nH]c4ccccc43)c2=O)cc1 | -5% | -6%
CC1=C(C(=O)OC2CCCCCC2)C(c2cccc(Cl)c2)CC(=O)N1 (centres undefined) | 25% | 28%
CCCCN(CC)C(=O)c1cc2c(C)cc(C)c(C)c2[nH]1 | 60%[activator] | -6%
Cc1ccc(C)c(Nc2nn3c(=O)c4ccc(C(=O)NCc5ccccc5)cc4nc3s2)c1 | -2% | 6%
O=C(/C=C/c1ccccc1)OCC1C(COC(=O)/C=C/c2ccccc2)C1(Cl)Cl (centres undefined) | -3% | 1%
CC(=O)Nc1ccc2[nH]cc(C(C(=O)O)N3CCN(c4cc(C)c5ccccc5n4)CC3)c2c1 (centres undefined) | -8% | 2%
Cc1ccc(Oc2nc(-c3ccccn3)nc3ccccc23)cc1 | -20% | 73%[activator]
O=c1cc(CN2CCN(S(=O)(=O)c3cccc(Cl)c3)CC2)c2ccc(O)cc2o1 | -5% | -15%
Nc1nc(CN2CCN(c3cccc(Cl)c3)CC2)nc(N2CCCc3ccccc32)n1 | -10% | -12%
CCOc1ccc(CNC(=O)C2CCCN(S(=O)(=O)c3ccc4c(c3)CCCC(=O)N4)C2)cc1 (centres undefined) | 5% | -1%
N#CCCn1cc(C(=O)CN2C(=O)NC(Cc3c[nH]c4ccccc34)C2=O)c2ccccc21 (centres undefined) | -1% | -8%
COc1ccc(NC(=O)c2oc3ccccc3c2NC(=O)COc2ccc(F)cc2)c(OC)c1 | -6% | -7%
CCOC(=O)c1c(S(=O)(=O)NCC(=O)N2CCCC2)c(C)n(C)c1C | 147%[activator] | -1%
COc1ccc(CN2C[C@]3(C=C(C)Cn4c(=O)n(-c5ccccc5)c(=O)n43)N=C2NC(=O)c2ccccc2)c(OC)c1 | 15% | 44%[activator]
COc1ccccc1NS(=O)(=O)c1ccc2oc(SCCOc3ccc(F)cc3)nc2c1 | -29% | u
CC1CCN(c2nn3c(=O)c(C(=O)NCCc4ccc(Cl)cc4)cnc3s2)CC1 | -5% | -4%
SMILES | StopGo RLuc | 2A firefly
Cc1ccc(C)c(S(=O)(=O)CCN2CCN(c3cccc(Cl)c3)CC2)c1 | 11% | 1%
C=CCn1c(N2CCC(C(N)=O)CC2)nc2c1c(=O)n(C)c(=O)n2C | -8% | -12%
CCOC(=O)N1CCc2c(sc3c2c(=O)n(CCc2ccccc2)c(=O)n3CC(=O)Nc2ccccc2C)C1 | -11% | -14%
O=c1ccc2cc(S(=O)(=O)N3CCCC3)ccc2[nH]1 | 10% | 12%
CCOc1cc(-c2nc(-c3ccc(-c4ccccc4)nc3OCC)no2)cc(OCC)c1OCC | 8% | -1%
Cc1ccccc1NC(=O)c1nc2ccccc2nc1N1CCN(C)CC1 | -19% | -14%
CC1CCN(C(=O)C(=O)N2CCN(c3nc(-c4ccco4)c4c(c3C#N)CCCC4)CC2)CC1 | 11% | -3%
COc1ccc(Cl)cc1NC(=O)C(C)n1c(=O)cc(C(F)(F)F)c2c(C)nn(C)c21 (centres undefined) | -9% | 19%
O=C(Cc1ccc2c(c1)OCO2)OCc1ccc2c(c1)OCO2 | -4% | 32%[activator]
Cc1ccc(Cn2c(CNS(=O)(=O)c3ccc(F)c(Cl)c3)nc3cccnc32)cc1 | 59%[activator] | -2%
CCOC(=O)c1c(C)oc2ccc(N(C(C)=O)S(=O)(=O)c3c(C)cc(C)cc3C)cc12 | 6% | -2%
Cc1ccc(Cl)cc1NC(=O)c1cc2c(=O)n3cccc(C)c3nc2n1C | -7% | -9%
N#Cc1cc(Br)ccc1OCc1ccccc1Cl | 22% | 0%
CC(C)(C)c1ccc(C(=O)N/N=C/C=C/c2ccccc2)cc1 | 0% | 28%
COc1ccc(CNC(=O)c2ccc3[nH]c(C)c(C)c3c2)c(OC)c1 | 93%[activator] | 53%[activator]
CN(CC(=O)Nc1ccc(Cl)cc1)C(=O)COc1cccc(F)c1 | 14% | 8%
Cc1cnc2c(S(=O)(=O)NC(C)CN3CCOCC3)cccc2c1 (centres undefined) | 41%[activator] | 11%
C=C(Cl)COc1ccc(C(=O)NC)cc1 | 4% | 44%[activator]
Cc1cc(N2CCN(c3ccc(F)cc3)CC2)n2nc(Cc3cccc(F)c3)nc2n1 | 14% | 11%
C=Cc1ccc(CN2C(=O)N(c3ccc(C)c(C)c3)S(=O)(=O)c3ccccc32)cc1 | 28% | 4%
O=C(O)C(c1c[nH]c2cc(Br)ccc12)N1CCCN(c2ccc(C(F)(F)F)cn2)CC1 (centres undefined) | -18% | -16%
O=c1oc2cc(S(=O)(=O)N3CCOCC3)ccc2n1Cc1ccc(Cl)cc1 | -5% | -1%
O=C(Nc1ccc(I)cc1)C1CCCN1c1ncnc2ccccc12 (centres undefined) | -6% | 9%
CC(C)Cc1nc(N2CCOCC2)c(C#N)c2c1CCCC2 | 8% | 6%
COCc1cc(C)nc2sc3c(c12)NCN(c1cccc(OC)c1)C3=O | 25% | 24%
Cc1occc1C(=O)NC(C)c1cccc(Cl)c1 (centres undefined) | -14% | -6%
O=C(CCCn1c(=O)c2ccccc2n(CC(=O)Nc2cccc(C(F)(F)F)c2)c1=O)NCc1ccc2c(c1)OCO2 | -9% | -16%

These rows are one share of the data (hit frequency here may not be typical).
